Bioassay records: PubChem BioAssay, National Center for Advancing Translational Sciences (NCATS)
Prx2 Sm inh: inhibitors of Schistosoma mansoni peroxiredoxin 2; actives 0.07% (n = 65,000); S. mansoni Prx2 activity coupled to TGR/GSH (TGR is thioredoxin glutathione reductase), NADPH fluorescence loss, qHTS; some inactives read as strong as hits; AID 448; Potency, µM; active means full or partial inhibition curve with a strong effect at the top dose; inconclusive means weaker partial or single-point curve; inactive means no accepted curve; also: series up to 57 µM; many of its hits are not listed in these tables
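qHTS, coupled TGR/Prx2 format; 15 min compound preincubation at RT; reaction started with H2O2 (2.5 mM aliquot); kinetic NADPH fluorescence decrease, ex 365/em 450 nm.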
Anthrax LT inh: inhibitors of anthrax lethal toxin internalization. Potency, µM (highest dose often 40 µM), inactives show top-dose activity change, negative = inhibition, hits mostly inhibitors. Cells, anthrax lethal toxin internalization, FRET ratio (460/530). actives 0.67% (n = 70,000); active = well fitted falling ratio curve with the 530 nm signal flat; inconclusive = other ratio curves, or a change in one channel alone; inactive = flat curves in the ratio and both channels; the % refers to the ratio; also: % is scaled to controls: 0 for no effect and ±100 for the full control effect; nearly all actives have a fitted effect of over 50% in size; tested in ME-180 cells; beta-lactamase reporter
An asterisk follows results filed as active; ? = inconclusive; . = not tested or not shown; & = joins results of further samples; [ ] = another dose, or the depositor's remark. Potency is read from the fitted curve at half-maximal effect. Some of the compounds tested; the hit share may differ from the screen's.

Order of values – Prx2 Sm inh, Anthrax LT inh
O=C(Nn1cnnc1)c1ccccc1CCc1ccccc1
 : >57, 5%
COc1ccc(C2C(C(=O)N3CCC(C)CC3)c3ccccc3C(=O)N2C)cc1 (configuration not stated)
 : >57, 12%
COC(=O)c1ccc2c(c1)NC1=C(C(=O)CC(C)(C)C1)C(c1ccncc1)N2 (configuration not stated)
 : >57, 5%
O=C(Nc1ccc2nc(C3CC3)n(Cc3ccc(F)cc3)c(=O)c2c1)c1ccco1
 : >57, -18%
CN(Cc1ccco1)c1nc(-c2ccoc2)nc2ccccc12
 : >57, -18%
Cc1cc(Cl)ccc1OCC(=O)N1CCN(C)CC1
 : ., 12%
Cc1cc(-c2ccc(N=Nc3ccc4c(S(=O)(=O)O)cc(S(=O)(=O)O)c(N)c4c3O)c(C)c2)ccc1N=Nc1ccc2c(S(=O)(=O)O)cc(S(=O)(=O)O)c(N)c2c1O
 : >57, ?
COc1cc(OC)cc(-c2nnc(SCc3cccnc3)o2)c1
 : >57, 3%
CC12C=C(/C=C/c3ccc(C(F)(F)F)cc3)C(C)(C1)C(c1ccc(C(F)(F)F)cc1)CC2=O (configuration not stated)
 : ., ?
Cc1cc(C)nc(NCC(O)COc2ccccc2C)n1 (configuration not stated)
 : >57, -5%
CCC1(CC)C(=O)C(C)(C)C(=O)OC1c1ccccn1 (configuration not stated)
 : >57, 2%
C#C[C@@]1(O)CC[C@@H]2[C@@H]3CCC4=CC(=O)CC[C@@H]4[C@H]3CC[C@]21C
 : >57, 0%[3.58 µM]
CCOc1ccc(Br)cc1-c1noc(-c2cccs2)n1
 : >57, -3%
CCOC(=O)c1cc(-c2ccc(C)o2)nn1CCC#N
 : >57, ?
CN(C)CCCCCNCCCNC(=O)/C=N\O
 : >57, 5%
CCN(CC)CCCCCCCCOC(=O)c1cc(OC)c(OC)c(OC)c1
 : >57, -1%
CCC(C(=O)Nc1nc(C)cs1)c1ccccc1 (configuration not stated)
 : >57, -1%
CCOc1cc2c(cc1OCC)C(C(=O)O)C(c1ccc(OC)c(O)c1)N(C)C2=O (configuration not stated)
 : >57, 2%
Cc1cc2cc(CN(CC3CCCO3)C(=O)c3cnccn3)c(=O)[nH]c2cc1C (configuration not stated)
 : >57, -15%
O=C(CN1CCN(c2ccccn2)CC1)N1c2ccccc2CCc2ccccc21
 : >57, 0%
CCCCOc1ccccc1C1NC(=O)NC(C)=C1C(=O)OCCOCC (configuration not stated)
 : ., -9%
COC(=O)CC#N
 : ., -19%
OC(COc1ccc2c(c1)CCC2)CN1CCN(c2ccccc2F)CC1 (configuration not stated)
 : >57, ?
N#Cc1ccc(CN2CC[C@@]3(CCCN(S(=O)(=O)c4ccccc4)C3)C2)cc1
 : >57, ?
COc1ccc(Nc2nc(OC)nc(N3CCN(c4ccc(OC)cc4)CC3)n2)cc1
 : ., ?
O=C(N[C@@H](Cc1ccccc1)C(=O)O)c1cccnc1
 : >57, 3%
Cc1ccc(S(=O)(=O)Oc2cc(N)c3c(n2)CCC3)cc1
 : >57, ?
O=C(Nc1ccc2c(c1)ncn2C1CCCCC1)c1ccco1
 : >57, ?
Cc1ccc(C(=O)CCC(=O)Nc2cccnc2)cc1C
 : >57, .
CO[C@@H](NC(N)=O)C(=O)O
 : >57, -8%[8 µM]

By substructure, those above with sulfur.
Order of values – Prx2 Sm inh, Anthrax LT inh
Cc1cc(-c2ccc(N=Nc3ccc4c(S(=O)(=O)O)cc(S(=O)(=O)O)c(N)c4c3O)c(C)c2)ccc1N=Nc1ccc2c(S(=O)(=O)O)cc(S(=O)(=O)O)c(N)c2c1O
 : >57, ?
COc1cc(OC)cc(-c2nnc(SCc3cccnc3)o2)c1
 : >57, 3%
CCOc1ccc(Br)cc1-c1noc(-c2cccs2)n1
 : >57, -3%
CCC(C(=O)Nc1nc(C)cs1)c1ccccc1 (configuration not stated)
 : >57, -1%
N#Cc1ccc(CN2CC[C@@]3(CCCN(S(=O)(=O)c4ccccc4)C3)C2)cc1
 : >57, ?
Cc1ccc(S(=O)(=O)Oc2cc(N)c3c(n2)CCC3)cc1
 : >57, ?

(listing goes on)
Order of values – Prx2 Sm inh, Anthrax LT inh
Cn1c(=O)c(-c2ccc(F)cc2)nc2cnc(OCc3ccccc3)nc21
 : >57, ?
Cc1ccc(NC(=O)CN(c2cc(C)cc(C)c2)S(=O)(=O)c2c(C)noc2C)nc1
 : >57, ?
Cc1ccc(N2CC(C(=O)Nc3cccnc3)CC2=O)cc1 (configuration not stated)
 : >57, 12%
c1ccc(-c2nc3ccccc3nc2N2CCOCC2)cc1
 : >57, 1%
CN1C(=O)CC(C(=O)O)SC1=Nc1cccc(C(F)(F)F)c1 (configuration not stated)
 : >57, -3%
CCCCCn1c(CCNC(=O)CCC)nc2ccccc21
 : >57, -9%
Cc1cc(NC(=O)c2cc3n(n2)C(C(F)(F)F)CC(c2ccco2)N3)n(-c2ccccc2)n1 (configuration not stated)
 : ., ?
COc1ccc(C(=O)N2CCC3(CC2)CCN(c2cccc(-c4ccccc4)c2)CC3)cc1
 : >57, ?
COc1cccc(-c2nc(N(C)Cc3ccco3)c3ccccc3n2)c1
 : >57, ?
CCn1c(SCC(=O)N2CCCc3ccccc32)nnc1-c1cccs1
 : >57, 4%
CCOC(=O)c1cnc(-n2nc(C)cc2C)nc1N1CC(C)OC(C)C1 (configuration not stated)
 : >57, -10%
CCOC(=O)N1CCN(C(=O)c2ccc3c(=O)n(CCc4ccccc4)c(=O)[nH]c3c2)CC1
 : >57, 13%
Clc1cc(Cl)c2nc(N3CCCCC3)sc2c1
 : >57, -24%
Cc1cc(NC(=O)CCN2C(=O)C3C4C=CC(C4)C3C2=O)c2ccccc2n1 (configuration not stated)
 : >57, -3%
Cc1ncc(COP(=O)(O)O)c(C)c1O
 : >57, 0%[8 µM]
Cc1ccc(-c2noc(CN(C(=O)c3cccs3)C(C)C)n2)cc1
 : >57, -3%
CCn1c(C(O)c2cccc(OC)c2OC)nc2ccccc21 (configuration not stated)
 : >57, 5%
Cc1c(NC(=O)CC(=O)Nc2c(C)n(C)n(-c3ccccc3)c2=O)c(=O)n(-c2ccccc2)n1C
 : >57, -6%
O=C(NC1(C(F)(F)F)Oc2ccccc2O1)N1CCC2(CC1)OCCO2
 : >57, 4%
Cc1cccc(N2CCN(c3cc(C)nc4nnnn34)CC2C)c1 (configuration not stated)
 : >57, 8%
O=C(NCCCn1ccnc1)c1cccc(S(=O)(=O)Nc2ccccc2F)c1
 : >57, 3%
Cc1ccccc1NC(=O)CCn1c(=O)oc2ccccc21
 : >57, 6%
N#CCC(=O)Nc1ccccc1C(=O)O
 : >57, 4%
Fc1ccc(-n2[nH]nnc2=S)cc1N1CCCC1
 : >57, -29%
CC(C)(C)NC[C@H](O)c1cc(Cl)c(N)c(Cl)c1
 : >57, 12%[3.58 µM]
COC(=O)C(O)(c1c(C)[nH]n(-c2ccccc2)c1=O)C(F)(F)F (configuration not stated)
 : >57, ?
CCOC(=O)C(CC(C)C)CP(=O)(O)CNC(=O)OCc1ccccc1 (configuration not stated)
 : >57, 4%
CCc1cc2c(=O)n(Cc3ccco3)c(SCC(=O)N3CCCc4ccccc43)nc2s1
 : >57, ?
CCOC(=O)c1ccc(NC(=O)COc2ccc(-n3cnnn3)cc2)cc1
 : >57, 9%
O=C(CCCN1C(=O)c2ccccc2C1=O)Nc1ccc(Br)cn1
 : >57, -5%
Cc1ccc(C2/C(=C(/O)c3ccccc3)C(=O)C(=O)N2CCN2CCOCC2)o1 (configuration not stated)
 : >57, 6%
Cc1nnc(NC(=O)C2C3C=CC(O3)C2C(=O)O)s1 (configuration not stated)
 : >57, -11%
Cn1c(N)c(C(=O)COC(=O)c2cccs2)c(=O)n(C)c1=O
 : >57, -10%
COc1ccc(Cn2nnnc2C(CC(C)C)N2CCN(c3ccccc3)CC2)cc1 (configuration not stated)
 : >57, -20%
Cc1nc(NC(=O)COC(=O)C(NC(=O)c2ccco2)C(C)C)c(Cl)cc1Cl (configuration not stated)
 : >57, 4%
COC(=O)CNc1n[nH]c(=S)[nH]c1=O
 : >57, -7%
Cc1ccc(NC(=O)CSC2=C(C#N)C(c3ccco3)C3=C(CC(C)(C)CC3=O)N2)cc1 (configuration not stated)
 : >57, 6%
CCOc1cc(C(=O)N(C)c2ccccc2)cc(OCC)c1OCC
 : ., 1%
C[C@H](Oc1ccccc1)C(=O)N[C@@H]1C(=O)N2[C@@H]1SC(C)(C)[C@@H]2C(=O)O
 : >57, 12%[3.58 µM]
CCc1ccc(-c2nc(CN3CCC(C(=O)NCc4ccc(F)cc4)CC3)c(C)o2)cc1
 : >57, -1%

Next records
| canonical_smiles | Prx2 Sm inh | Anthrax LT inh |
| --- | --- | --- |
| CC(C)Cn1c(N)c(C(=O)NCC2CCCO2)c2nc3ccccc3nc21 (configuration not stated) | >57 | ? |
| c1ccc2sc(N3CCN(Cc4ccc5c(c4)OCO5)CC3)nc2c1 | >57 | 5% |
| COc1cccc(CNC(=O)C2CCN(S(=O)(=O)N3CCCC3)CC2)c1 | >57 | . |
| O=C(NCc1ccccn1)c1ccc(CS(=O)(=O)Cc2ccc(Cl)cc2)o1 | >57 | -2% |
| CCOC(=O)C1CCCN(C(=O)c2ccco2)C1 (configuration not stated) | . | -15% |
| COc1ccccc1C1/C(=C(/O)c2ccccc2)C(=O)C(=O)N1CC(C)O (configuration not stated) | >57 | 3% |
| O=C(Nc1ccc2c(c1)CCC2)C1CCN(c2ncccn2)CC1 | >57 | 1% |
| CC1CN2C(CCC(C)C2c2ccc(Br)cc2)C(=O)O1 (configuration not stated) | . | -13%&-4%&-2%[8 µM] |
| COC(=O)NC(CC(C)=O)c1ccccc1 (configuration not stated) | . | -15%[8 µM] |
| CSc1ccc(S(=O)(=O)N2CCN(Cc3ccc4c(c3)OCO4)CC2)cc1 | >57 | ? |
| CC(=O)N1CCC2(CCCN(c3ccccc3)C2)CC1 | >11 | 20% |
| CN(C)C(=O)c1ccc(-c2ccc3ncnc(N4CCNCC4)c3c2)cc1 | >57 | -13% |
| CS(=O)(=O)N1CCC(C(=O)NCc2ccc(F)cc2Cl)CC1 | >57 | 4% |
| CCOc1ccccc1CN1C(=O)NC(C)(c2ccccc2)C1=O (configuration not stated) | >57 | -6% |
| COC(=O)c1sc2nc(-c3ccco3)ccc2c1N | >57 | 3% |
| O=C(Cn1nc(C(F)(F)F)c2c1CCC2)NC1CCCCC1 | >57 | -13% |
| BrC1C(Br)C(Br)C(Br)C(Br)C1Br (configuration not stated) | . | -26% |
| CCOc1ccc(S(=O)(=O)Nc2cc(OC)ccc2OC)cc1 | >57 | ? |
| O=c1[nH]c(-c2ccc(Cl)cc2)nc2c1cnn2-c1ccccc1 | >57 | 1% |
| O=C(O)[C@@H](O)[C@@H](O)[C@@H](O)[C@@H](O)c1nc2ccccc2s1 | >57 | ? |
| Cc1nc2cc(C(=O)O)ccc2n1-c1ccc(F)cc1F | >57 | 4% |
| O=C(NCc1nc2ccccc2[nH]1)c1ccc(Cl)c(S(=O)(=O)N2CCCC2)c1 | >57 | -8% |
| CCOC(=O)COc1ccc(-c2nnc(-c3ccccc3)o2)cc1 | >57 | -3% |
| CCn1c(C)c(CCC(=O)O)c(=O)n2nc(-c3ccccc3OC)cc12 | >57 | 9% |
| COc1cccc(Nc2ncc3nc(-c4cccs4)c(=O)n(-c4ccccc4)c3n2)c1 | >57 | ? |
| N#C/C(=C\c1ccc(O)c(O)c1)C(=O)c1ccc(O)c(O)c1 | >57 | 0% |
| O=c1c(-c2ccccc2)nc2cncnc2n1Cc1ccccc1 | >57 | ? |
| Cc1ccc2nc(SCC(=O)Nc3cc(C)on3)[nH]c2c1 | >57 | ? |
| CN(CCOc1ccc(Cl)cc1)c1ccc(S(=O)(=O)N2CCCCC2)cn1 | >57 | ? |
| COc1ccc(CNc2nc(-c3ccc4c(c3)OCO4)nc3ccccc23)c(OC)c1 | >11 | ? |
| CCC1=[N+]([O-])C(C)(/C(C)=N\O)N(O)C1(C)C (configuration not stated) | >57 | -2% |
| COc1ccccc1CNc1ccnc(-c2cccc(C#N)c2)n1 | >57 | ? |
| CCN(CC)CCNC(=O)CS(=O)Cc1nc(-c2ccc(Cl)cc2)oc1C (configuration not stated) | >57 | -20% |
| CCNC(=O)NC(=O)COC(=O)CCCSc1nc2ccccc2[nH]1 | >57 | -1% |
| Nc1nnc(SCc2cccnc2)s1 | >57 | -18% |
| COc1ccc2c(c1)c1ccccc1n2C | >57 | 5% |
| CCn1c(=O)c(-[n+]2ccccc2)c(O)c2ccccc21 | >57 | 0% |
| CCc1ccc2[nH]c(=O)c(CN(CCN3CCOCC3)C(=O)Nc3ccccc3F)cc2c1 | >57 | 5% |

For convenience, some entries already given:
| canonical_smiles | Prx2 Sm inh | Anthrax LT inh |
| --- | --- | --- |
| CCC1=[N+]([O-])C(C)(/C(C)=N\O)N(O)C1(C)C (configuration not stated) | >57 | -2% |
| COc1ccccc1CNc1ccnc(-c2cccc(C#N)c2)n1 | >57 | ? |
| CCN(CC)CCNC(=O)CS(=O)Cc1nc(-c2ccc(Cl)cc2)oc1C (configuration not stated) | >57 | -20% |
| CCNC(=O)NC(=O)COC(=O)CCCSc1nc2ccccc2[nH]1 | >57 | -1% |
